Vaccinia stage = blocks a specific stage of Vaccinia orthopoxvirus infection; Vaccinia-infected cells, mCherry/Venus stage reporter fluorescence; stronger effect = lower value; some inactives read as strong as hits; activity change (mCherry), % (concentration not given with the values); 0.01% of 89,000 active;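 active means mCherry past -33% and 40 or more points under the early reporter, replicates agreeing; inconclusive means past -33% without that gap or agreement; tested in A549 cells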;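 further: scaled between vehicle wells and reference inhibitor wells; 23 nL library stock went into each well; one replicate is shown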
Vaccinia stage Venus = recorded beside Vaccinia stage, whose call it bears; activity change (Venus), %; measured here: Venus reporter, other viral stage;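 negative = less Venus signal; first of two replicates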
Numbers without * were called inactive; ? = inconclusive; / = not tested or not shown; & = joins results of further samples. A portion of the library; count on the stated rates, not on these rows.

Values in the order: Vaccinia stage | Vaccinia stage Venus
> C[C@@H]1CN([C@@H](C)CO)C(=O)c2cc(C#CCN(C)C)cnc2O[C@H]1CN(C)C(=O)NC1CCCC1
→ 19 | 1
> C[C@@H]1CN([C@@H](C)CO)C(=O)c2cccc(NS(=O)(=O)c3cccs3)c2O[C@H]1CN(C)C(=O)Nc1cccc2ccccc12
→ 20 | 20
> O=C(N[C@@H]1CC[C@H](CC(=O)N2CCOCC2)O[C@@H]1CO)c1ccccn1
→ 15 | 19
> C[C@@H]1CCCCO[C@H](CN(C)C(=O)c2ccncc2)[C@@H](C)CN([C@H](C)CO)C(=O)c2cc(NS(=O)(=O)c3ccc(F)cc3)ccc2O1
→ 24 | 13
> CC(C)CC#Cc1cnc2c(c1)C(=O)N([C@H](C)CO)C[C@H](C)[C@@H](CN(C)C(=O)c1ccc3c(c1)OCO3)O2
→ 6 | -4
> COc1ccccc1-c1ccccc1[C@H]1[C@H](C#N)N(C(=O)C2CC2)[C@H]1CO
→ 15 | 16
> COc1cccc(S(=O)(=O)N2[C@@H]3CNC[C@H]2C3c2ccc(-c3cccc(C(=O)N(C)C)c3)cc2)c1 (stereo not given in full)
→ 11&8 | 6&5
> C[C@@H]1CN([C@H](C)CO)C(=O)c2cc(C3=CCCC3)cnc2O[C@H]1CN(C)C(=O)c1cccnc1
→ 15 | 9
> CO[C@H]1CN(C)C(=O)c2cc(NC(=O)C3CCOCC3)ccc2OC[C@@H](C)NC[C@H]1C
→ 9 | 17
> COc1ccc2c3c(n(C)c2c1)[C@@H](CO)N(C(=O)Cc1ccccc1)CC31CN(C(=O)Cc2ccccc2)C1
→ ? | /
> CO[C@@H]1CN(C)C(=O)c2ccc(NS(=O)(=O)c3cccc(F)c3)cc2OC[C@@H](C)N(Cc2cc(F)ccc2F)C[C@@H]1C
→ -33 | -28
> CN(C)C(=O)C[C@H]1CC[C@@H]2[C@H](COC[C@@H](O)CN2S(=O)(=O)c2ccccc2)O1
→ 12 | 7
> COc1ccccc1CNC(=O)C[C@H]1CC[C@@H]2[C@H](COC[C@@H](O)CN2C(=O)Nc2ccccc2)O1
→ 12 | 11
> O=C(C[C@H]1CC[C@H](NC(=O)CN2CCOCC2)[C@H](CO)O1)NC1CCC1
→ 4 | 5
> Cc1noc(C)c1NC(=O)N[C@H]1CC[C@@H](CC(=O)Nc2ccccc2)O[C@@H]1CO
→ 11 | 8
> COc1ccc(CN(C)C[C@@H]2Oc3c(NC(=O)Nc4c(C)noc4C)cccc3C(=O)N([C@@H](C)CO)C[C@@H]2C)cc1
→ 8 | 1
> C[C@H]1CCCCO[C@H](CN(C)Cc2ccc(Cl)c(Cl)c2)[C@@H](C)CN([C@@H](C)CO)C(=O)c2cc(NC(=O)c3ccccc3)ccc2O1
→ ? | /
> COc1cccc(S(=O)(=O)N(C)C[C@@H]2Oc3cc(C4=CCCCC4)ccc3S(=O)(=O)N([C@H](C)CO)C[C@@H]2C)c1
→ ? | /
> COc1ccc2c3c(n(C)c2c1)[C@@H](CO)N(C)CC31CN(C(=O)NC(C)C)C1
→ 6 | 4
> COc1ccc(-c2ccc([C@@H]3[C@@H](CO)N4C(=O)CN(C(=O)C5CC5)C[C@@H]34)cc2)cc1
→ -3 | 1
> CC(C)CC#Cc1ccc2c(c1)O[C@H](CN(C)C(=O)C1CCOCC1)[C@@H](C)CN([C@H](C)CO)S2(=O)=O
→ -3 | 0
> C[C@H]1CN([C@@H](C)CO)S(=O)(=O)c2ccc(C3=CCCC3)cc2O[C@H]1CN(C)C(=O)c1cccnc1
→ 24 | 18
> C[C@H]1CN([C@@H](C)CO)S(=O)(=O)c2ccc(Br)cc2O[C@@H]1CN(C)Cc1cccnc1
→ 4 | 3
> CCC(=O)N1[C@H](CO)[C@@H](c2ccccc2)[C@@H]1CN(C)C(=O)CN1CCOCC1
→ 8 | 10
> O=C(C[C@H]1CC[C@H]2[C@@H](COC[C@@H](O)CN2CCC(F)(F)F)O1)NCC1CCCCC1
→ 7 | 9
> N#Cc1cccc(-c2ccc(C3[C@@H]4CN(C(=O)c5ccccn5)C[C@H]3N4)cc2)c1 (stereo not given in full)
→ ? | /
> N#C[C@H]1[C@@H](c2ccc(C#Cc3cccc(F)c3)cc2)[C@@H](CO)N1C(=O)C1CC1
→ -9 | 5
> CO[C@H]1CN(C)C(=O)c2ccc(NS(=O)(=O)c3cccc(F)c3)cc2OC[C@H](C)N(Cc2cc(F)ccc2F)C[C@@H]1C
→ -28 | -27
> Cc1noc(C)c1NC(=O)Nc1ccc2c(c1)CC(=O)N([C@@H](C)CO)C[C@@H](C)[C@@H](CN(C)CC1CC1)O2
→ 5 | 14
> C[C@H](CO)N1C[C@H](C)[C@H](CN(C)C(=O)Nc2ccc(F)cc2)Oc2ccc(NS(=O)(=O)c3ccc(F)cc3)cc2CC1=O
→ 5 | 10
> CC(C)NC(=O)N(C)C[C@H]1Oc2ccc(NC(=O)CCCN(C)C)cc2C(=O)N([C@@H](C)CO)C[C@@H]1C
→ 15 | 10
> C[C@H](CO)N1C[C@H](C)[C@@H](CN(C)C(=O)Nc2ccccc2)Oc2ccc(NS(=O)(=O)c3cccs3)cc2C1=O
→ 13 | 4
> COCC#Cc1cnc2c(c1)C(=O)N([C@@H](C)CO)C[C@@H](C)[C@H](CN(C)C(=O)Nc1cccc(F)c1)O2
→ 14 | 14
> COc1ccccc1-c1ccc([C@H]2[C@@H](CO)N(C(C)=O)[C@@H]2CN(C)C(C)=O)cc1
→ 27 | 17
> N#Cc1cccc(-c2ccc(C3[C@@H]4CN(C(=O)Cc5ccccc5)C[C@H]3N4)cc2)c1 (stereo not given in full)
→ ? | -3
> Cc1ccccc1-c1ccc([C@@H]2[C@@H](CO)N3CCCCN(C(=O)Nc4ccc(F)cc4)C[C@@H]23)cc1
→ ? | /
> COc1ccc(NC(=O)N(C)C[C@@H]2OCCCC[C@@H](C)Oc3ccc(NS(=O)(=O)c4cccs4)cc3C(=O)N([C@@H](C)CO)C[C@H]2C)cc1
→ 2 | 1
> Cc1ccc(S(=O)(=O)Nc2ccc3c(c2)C(=O)N([C@H](C)CO)C[C@H](C)[C@@H](CN(C)C(=O)Nc2ccccc2)O3)cc1
→ 3 | 5
> C[C@H](CO)N1C[C@H](C)[C@@H](CN(C)CC2CC2)Oc2ccc(NS(=O)(=O)c3ccccc3)cc2CC1=O
→ -2 | -1
> C[C@H]1CN([C@@H](C)CO)C(=O)Cc2cc(NS(=O)(=O)c3cccs3)ccc2O[C@H]1CN(C)Cc1ccc2c(c1)OCO2
→ 0 | -7
> COc1ccc(S(=O)(=O)Nc2cccc3c2O[C@H](CN(C)S(=O)(=O)c2ccc(Cl)cc2)[C@H](C)CN([C@@H](C)CO)C3=O)cc1
→ 7 | 8
> CO[C@@H]1CN(C)C(=O)c2ccc(NC(=O)C3CCCC3)cc2OC[C@@H](C)NC[C@@H]1C
→ 0 | -2
> COc1ccc(NC(=O)Nc2cccc3c2O[C@H](CN(C)S(=O)(=O)c2cn(C)cn2)[C@@H](C)CN([C@@H](C)CO)C3=O)cc1
→ -2 | 10
> C[C@H](CO)N1C[C@H](C)[C@H](CN(C)Cc2cncnc2)Oc2ncc(-c3cccc(C#N)c3)cc2C1=O
→ 28 | 18
> COc1ccc(C[C@H]2CCc3cnnn3COC[C@H](Cc3ccccc3)NC2=O)cc1
→ 20 | 11
> CCCNC(=O)Nc1ccc2c(c1)OC[C@@H](C)N(C(C)=O)C[C@@H](C)[C@@H](OC)CN(C)C2=O
→ 9 | 10
> C[C@@H]1CN([C@H](C)CO)C(=O)c2cccc(NC(=O)Nc3ccc(C(F)(F)F)cc3)c2O[C@@H]1CN(C)C
→ -14 | -10
> CC(=O)N[C@@H]1C=C[C@H](CC(=O)NCc2ccc(Cl)cc2)O[C@@H]1CO
→ -3 | -1
> CCC(=O)N(C)C[C@@H]1Oc2ncc(C#CCc3ccccc3)cc2C(=O)N([C@H](C)CO)C[C@@H]1C
→ 4 | 11
> C[C@H](CO)N1C[C@H](C)[C@H](CN(C)C(=O)Nc2ccc3c(c2)OCO3)OCCCC[C@H](C)Oc2ccc(NC(=O)Nc3ccc(F)cc3)cc2C1=O
→ 1 | 4

Profiles from above. Order of screens: Vaccinia stage | Vaccinia stage Venus
`C[C@H](CO)N1C[C@H](C)[C@H](CN(C)C(=O)Nc2ccc3c(c2)OCO3)OCCCC[C@H](C)Oc2ccc(NC(=O)Nc3ccc(F)cc3)cc2C1=O` in the list: 1 | 4
`COc1ccc(S(=O)(=O)Nc2cccc3c2O[C@H](CN(C)S(=O)(=O)c2ccc(Cl)cc2)[C@H](C)CN([C@@H](C)CO)C3=O)cc1` in the list: 7 | 8
`CCC(=O)N(C)C[C@@H]1Oc2ncc(C#CCc3ccccc3)cc2C(=O)N([C@H](C)CO)C[C@@H]1C` in the list: 4 | 11
`C[C@@H]1CN([C@H](C)CO)C(=O)c2cccc(NC(=O)Nc3ccc(C(F)(F)F)cc3)c2O[C@@H]1CN(C)C` in the list: -14 | -10
`COc1ccc(NC(=O)Nc2cccc3c2O[C@H](CN(C)S(=O)(=O)c2cn(C)cn2)[C@@H](C)CN([C@@H](C)CO)C3=O)cc1` in the list: -2 | 10

(next part)
Values in the order: Vaccinia stage | Vaccinia stage Venus
> C[C@H]1CN([C@@H](C)CO)C(=O)c2c(c3ccccc3n2C)-c2ccccc2CO[C@@H]1CN(C)S(C)(=O)=O
→ 5 | -2
> C[C@H](CO)N1C[C@H](C)[C@@H](CN(C)S(=O)(=O)c2ccccc2)Oc2ccc(NC(=O)Nc3ccc(F)cc3)cc2C1=O
→ -8 | -5
> O=C(C[C@@H]1CC[C@H]2[C@@H](COC[C@@H](O)CN2Cc2ccccc2)O1)N[C@@H]1CCN(Cc2ccccc2)C1
→ -20 | -9
> O=C(CC1CC1)N1CC2(C1)[C@@H](c1ccccc1)[C@@H](CO)N2Cc1cccc(F)c1
→ -3 | 5
> C[C@H]1CN([C@@H](C)CO)C(=O)c2cccc(NC(=O)c3ccc(-c4nccs4)cc3)c2O[C@@H]1CN(C)Cc1ccc(C(=O)O)cc1
→ 22 | 14
> CC(C)CC#Cc1cnc2c(c1)C(=O)N([C@H](C)CO)C[C@H](C)[C@@H](CN(C)C(=O)C1CCCCC1)O2
→ -2 | -1
> Cc1cc(C)cc(N2C(=O)CSC2c2cccc([N+](=O)[O-])c2)c1 (stereo not given)
→ 13 | 14
> C[C@@H]1CCCCO[C@@H](CN(C)S(C)(=O)=O)[C@H](C)CN([C@@H](C)CO)C(=O)c2cc(NS(=O)(=O)c3ccc(F)cc3)ccc2O1
→ 24 | 18
> C[C@H](CO)N1C[C@H](C)[C@@H](CN(C)C)Oc2cc(-c3ccccc3F)ccc2S1(=O)=O
→ 1 | 4
> COc1ccc(C(=O)Nc2ccc3c(c2)OC[C@@H](C)N(Cc2cocn2)C[C@H](C)[C@H](OC)CN(C)C3=O)cc1
→ 1 | -2
> C[C@@H]1CN([C@@H](C)CO)C(=O)c2cccc(NS(=O)(=O)c3cccs3)c2O[C@@H]1CN(C)S(=O)(=O)c1cn(C)cn1
→ 11 | 8
> N#Cc1ccc(-c2ccc([C@H]3[C@@H](CO)N4CCCCN(C(=O)Nc5ccc(F)cc5)C[C@@H]34)cc2)cc1
→ -11 | -15
> C[C@@H]1CN([C@H](C)CO)C(=O)c2ccccc2-c2ccccc2CO[C@@H]1CN(C)S(=O)(=O)c1ccc(F)cc1
→ 19 | 17
> C[C@@H]1CN([C@@H](C)CO)C(=O)c2cc(C#CC3(O)CCCC3)cnc2O[C@@H]1CN(C)C(=O)Nc1ccc2c(c1)OCO2
→ -1 | -3
> COc1ccc(CN(C)C[C@H]2Oc3c(NC(=O)C4CCCCC4)cccc3C(=O)N([C@@H](C)CO)C[C@H]2C)cc1
→ -11 | -1
> C[C@@H]1CN([C@@H](C)CO)C(=O)c2cc(NC(=O)CCN3CCOCC3)ccc2O[C@@H]1CN(C)Cc1ccc(Cl)c(Cl)c1
→ -24 | -20
> CO[C@H]1CN(C)C(=O)c2cc(NC(=O)c3ccc4c(c3)OCO4)ccc2OC[C@@H](C)NC[C@@H]1C
→ 6 | 1
> CCCC(=O)N1CC2(C1)CN(C(=O)C1CCOCC1)[C@H](CO)c1[nH]c3cc(OC)ccc3c12
→ 13 | 8
> C[C@@H]1CN([C@@H](C)CO)C(=O)c2cc(NC(=O)CCN3CCOCC3)ccc2O[C@H]1CN(C)C(=O)Nc1ccccc1
→ 18 | 18
> COc1ccc(NC(=O)Nc2ccc3c(c2)C(=O)N([C@H](C)CO)C[C@H](C)[C@H](CN(C)Cc2ccc(Cl)c(Cl)c2)OCCCC[C@@H](C)O3)cc1
→ -1 | -4

Nothing new here: two of the compounds above.
Values in the order: Vaccinia stage | Vaccinia stage Venus
> C[C@@H]1CN([C@@H](C)CO)C(=O)c2cc(NC(=O)CCN3CCOCC3)ccc2O[C@H]1CN(C)C(=O)Nc1ccccc1
→ 18 | 18
> COc1ccc(NC(=O)Nc2ccc3c(c2)C(=O)N([C@H](C)CO)C[C@H](C)[C@H](CN(C)Cc2ccc(Cl)c(Cl)c2)OCCCC[C@@H](C)O3)cc1
→ -1 | -4

(cont.)
Values in the order: Vaccinia stage | Vaccinia stage Venus
> C[C@H]1CCCCO[C@H](CN(C)S(=O)(=O)c2ccc(F)cc2)[C@@H](C)CN([C@@H](C)CO)C(=O)c2cc(NC(=O)Nc3ccc(C(F)(F)F)cc3)ccc2O1
→ 1 | -3
> O=C(C1CC1)N1CC2(C1)[C@H](c1ccccc1)[C@H](CO)N2Cc1cncnc1
→ 5 | -1
> CN(C)c1ccc2c(c1)[C@H]1C[C@@H](CC(=O)NCc3ccc(Oc4ccccc4)cc3)O[C@@H](CO)[C@H]1O2
→ ? | /
> COc1ccc(S(=O)(=O)N(C)C[C@@H]2OCCCC[C@H](C)Oc3ccc(NC(=O)Nc4ccc(F)cc4)cc3C(=O)N([C@@H](C)CO)C[C@H]2C)cc1
→ 4 | 10
> CN(C)Cc1cn(CC[C@H]2CC[C@@H](NS(=O)(=O)c3ccc(-c4ccccc4)cc3)[C@H](CO)O2)nn1
→ -21 | -9
> C[C@H](CO)N1C[C@H](C)[C@@H](CN(C)C(=O)c2ccccc2F)Oc2ncc(Br)cc2C1=O
→ 8 | 5
